Source: PubChem
FGF22 binding: binders of recombinant human FGF22 by thermal shift. Q9HCT0. SYPRO orange fluorescence; percent of sucrose octasulfate shift, DMSO zero. calls only at 9.99 µM. actives 1.5% (n = 340,000);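 active = melting point raised past a set limit in the mean and every replicate; three in four hits are not shown here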
Target sequence (Q9HCT0 whole entry, looked up): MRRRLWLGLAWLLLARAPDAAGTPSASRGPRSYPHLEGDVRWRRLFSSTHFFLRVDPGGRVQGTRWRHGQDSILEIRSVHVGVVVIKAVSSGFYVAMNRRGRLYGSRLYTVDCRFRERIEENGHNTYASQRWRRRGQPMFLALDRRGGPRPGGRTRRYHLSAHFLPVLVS
LANA-H2B inh: blocks KSHV LANA binding to histone H2A/H2B; cell-free LANA-H2A/H2B peptide, fluorescence polarization; Q9QR71; AID 2629; inhibition, % (test concentration not listed); actives 0.6% (n = 320,000); in the data active = inhibition mostly above about 10%, no sharp cut-off; inactive = mostly below about 6.7%;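 note: stock transfer was 7.5 nL into about 10 µL; 0% = median of vehicle wells and 100% = median of positive control wells; one replicate is shown; the record names a cut of 25% in any replicate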
E coli growth: inhibitors of Escherichia coli growth; OD600 absorbance (concentration not given with the values); OD600, 23 h; hits give low values; actives 0.21% (n = 330,000);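 active = OD600 absorbance below the run mean of sample wells minus 3.6 SD, in any replicate, cut at about 0.56 in these data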;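 note: stock transfer was 300 nL into about 60 µL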
UCH37 inh: inhibitors of human deubiquitinating enzyme UCH37; purified proteasome/UCH37, Ub-AMC cleavage fluorescence; Q9Y5K5; actives 0.33% (n = 330,000); inhibition, % (concentration not given with the values);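 active = mean of two replicates above 20%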;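 note: 0% = compound-free wells with enzyme and 100% = wells lacking proteasome; stock transfer was 100 nL into about 20 µL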
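Material: human UCH37 enzyme supplied as purified proteasome complex / Amount: 0.15 nM proteasome as dispensed / Buffer or medium: pH 7.4 Tris-HCl (50 mM) with ovalbumin, ATP-MgCl2, DTT / Times: preincubation 30 min, reaction 25 min, room temperature / Technique: AMC fluorescence from Ub-AMC cleavage, excitation 355 nm, emission 460 nm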
Beta2AR agonist: agonists of human beta-2 adrenergic receptor inducing internalization. actives 0.43% (n = 340,000). Am2.2-beta2AR cells, FAP receptor internalization, flow cytometry; reference of the scale not given here. AID 504454. P07550. response, % (test concentration not listed);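 active = response above a set limit, near 3 SD of response in nonfluorescent compounds, cut at about 42% in these data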;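 note: stock transfer was 100 nL into about 11 µL; a reference agonist was the positive control; negative values mostly stem from fluorescent compounds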
Target sequence (P07550 whole entry, looked up): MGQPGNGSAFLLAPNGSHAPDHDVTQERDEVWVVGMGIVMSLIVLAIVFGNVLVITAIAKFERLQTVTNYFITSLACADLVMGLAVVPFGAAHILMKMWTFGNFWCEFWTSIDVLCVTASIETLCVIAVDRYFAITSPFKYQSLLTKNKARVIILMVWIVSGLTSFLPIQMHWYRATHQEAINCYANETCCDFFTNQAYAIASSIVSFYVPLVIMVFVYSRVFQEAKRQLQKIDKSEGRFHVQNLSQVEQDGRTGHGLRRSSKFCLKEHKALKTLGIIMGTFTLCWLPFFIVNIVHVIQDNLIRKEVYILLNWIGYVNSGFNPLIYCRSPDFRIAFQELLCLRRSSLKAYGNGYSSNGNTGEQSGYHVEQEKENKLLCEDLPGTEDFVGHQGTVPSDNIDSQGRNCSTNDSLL
HNF4A DNA FP: change in binding of human HNF4 alpha to DNA | actives 0.3% (n = 360,000) | HNF4a-FITC DNA binding, fluorescence polarization, 1 h | P41235 | AID 1224865 | activity change, % at 10 µM; in the data active = activity change above about 30%, passing the limit was not always enough;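 note: controls were the assay level and a saturating level of protein; the project sought stronger binding though the title names inhibitors; some compounds called inactive have numbers as strong as hits; positive values seem to mean higher polarization but the record does not say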
Target sequence (P41235 whole entry, looked up): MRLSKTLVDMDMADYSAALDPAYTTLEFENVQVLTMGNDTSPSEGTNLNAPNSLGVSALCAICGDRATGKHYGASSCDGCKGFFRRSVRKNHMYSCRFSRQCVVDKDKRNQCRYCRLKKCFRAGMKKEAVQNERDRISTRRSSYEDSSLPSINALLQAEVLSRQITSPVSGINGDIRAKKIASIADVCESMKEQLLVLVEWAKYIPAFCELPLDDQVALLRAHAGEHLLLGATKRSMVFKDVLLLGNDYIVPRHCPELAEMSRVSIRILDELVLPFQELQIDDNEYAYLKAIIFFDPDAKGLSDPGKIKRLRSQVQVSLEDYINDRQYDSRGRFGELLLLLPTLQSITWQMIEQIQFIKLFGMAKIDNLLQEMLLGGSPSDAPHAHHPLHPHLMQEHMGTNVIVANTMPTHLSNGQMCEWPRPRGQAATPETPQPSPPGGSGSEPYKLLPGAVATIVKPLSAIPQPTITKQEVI
ALR H2O2 inh: inhibitors of human sulfhydryl oxidase ALR. P55789. purified ALR, DTT oxidation, H2O2 HRP-luminol luminescence. inhibition, % (concentration not given with the values). actives 3.8% (n = 290,000);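 active = mean and each replicate at 75% or more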;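 note: stock transfer was 7.5 nL into about 7.5 µL; 0% = neutral wells and 100% = wells with inactivated enzyme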
An asterisk follows results filed as active; i = inactive; . = not tested or not shown.

SMILES	FGF22 binding	LANA-H2B inh	E coli growth	UCH37 inh	Beta2AR agonist	HNF4A DNA FP	ALR H2O2 inh
O=S(=O)(c1c(Cl)sc(Cl)c1Br)N1CCCC1	i	-4.8	0.63	6.1	0	1.4	-2
Cc1nn(C(C)C(=O)NCCCc2ccccc2)c(=O)c2nn(-c3ccccc3)c(C)c12 (centres undefined)	i	-2.7	0.67	-1.0	-3	0.9	-1
CCN([C@H](CO)C(C)C)S(=O)(=O)c1ccccc1Br	i	.	0.7	1.0	-4	3.4	.
COC(=O)Cc1c(C)nc2nc(NCc3ccc(Cl)cc3)[nH]n2c1=O	.	-3.2	0.71	1.2	3	0.9	.
CC(=O)C(C)Sc1nnc(-c2ccccc2F)n1C1CC1 (centres undefined)	i	5.9	0.65	4.8	7	0.9	9
O=C(C1CCC1)N1CCc2cc(S(=O)(=O)N3CCc4ccccc4C3)ccc21	.	-1.6	0.76	1.5	.	.	-3
CCn1c(SCC(=O)Nc2cc(OC)ccc2OC)nnc1C1CCCCC1	.	6.7	0.7	0.9	0	-1.0	-6
O=C1CC(c2ccc(Cl)cc2)CC(=O)C1CS(=O)(=O)c1ccccc1 (centres undefined)	i	5.0	0.67	0.4	13	-0.3	17
CCc1ccccc1NC(=O)CSc1nc(C)c(C)o1	i	3.4	0.73	-0.2	1	4.5	99*
Cc1ccc(CN2CCN(CC(=O)NC(C)c3ccc4c(c3)OCCO4)C2=O)cc1 (centres undefined)	i	-4.6	0.71	1.8	6	-0.7	-9
CCc1cc2c(=O)n(Cc3ccco3)c(SCC(=O)NC3CCS(=O)(=O)C3)nc2s1 (centres undefined)	i	-3.2	0.69	0.2	-3	1.8	.
COc1ccccc1N1CC(C(=O)NC2CCCCCC2)CC1=O (centres undefined)	i	-2.6	0.71	0.6	1	2.1	-2
C=CC1CN(CC(=O)OC)S(=O)(=O)c2ccccc21 (centres undefined)	i	1.5	0.72	2.8	3	1.3	-9
Cn1c(CN2CCCC2)nc2cc(NC(=O)c3ccc(Cl)cc3)ccc21	i	3.9	0.64	3.0	-8	3.5	-9
CC(C)CN(C(=O)CCCc1nc2ccccc2c(=O)[nH]1)c1c(N)n(Cc2ccccc2)c(=O)[nH]c1=O	i	2.6	0.71	2.5	-13	0.3	.
CC(C)(C)n1nnnc1C(c1ccc2ncccc2c1)N1CCSCC1 (centres undefined)	.	-11	0.66	6.2	12	2.5	1
COCCc1nn2c(=O)cc(COC(=O)c3cc(OC)c(OC)c(OC)c3)nc2s1	i	5.1	0.67	1.9	0	-2.5	10
COc1ccccc1Nc1nnc(SCC(=O)NC2CCCC2)s1	i	-5.8	0.66	1.5	0	-4.6	4
Cc1ccc([N+](=O)[O-])cc1NCC(=O)NN	i	1.9	0.69	3.0	-3	-2.3	.
Cc1ccc(S(=O)(=O)N2CCC3(CC2)OCCN3S(=O)(=O)c2c(C)cc(C)cc2C)cc1	i	-2.6	0.64	5.3	-2	0.3	13
O=C(N[C@@H](Cc1ccccc1)C(=O)O)c1ccc(C(F)(F)F)cc1	i	0.0	.	4.4	4	4.3	-9
O=C(NCc1ccccc1)c1onc(CSc2ccc(F)c(F)c2)c1C(=O)NCc1ccccc1	.	1.6	0.73	4.3	6	-3.3	-1
COc1ccc(N2CCN(C(=O)CSc3nc4[nH]ncc4c(=O)n3-c3ccc(Br)cc3)CC2)cc1	i	-1.1	0.69	1.7	0	4.6	-7
CCOc1ccc(C(C)(C)C)cc1S(=O)(=O)Nc1ccncc1	i	2.6	0.73	3.3	4	-0.8	-5
COc1ccccc1CNC(=O)C1CCC(CNc2c(N3CCOCC3)c(=O)c2=O)CC1 (centres undefined)	i	3.5	0.73	6.5	4	-1.7	-1
Remaining list, next part
SMILES	FGF22 binding	LANA-H2B inh	E coli growth	UCH37 inh	Beta2AR agonist	HNF4A DNA FP	ALR H2O2 inh
CC1CN(S(=O)(=O)c2cccc(C(=O)Nc3ccc4c(c3)CCC4)c2)CC(C)O1 (centres undefined)	i	11	0.65	3.1	-7	-2.4	-2
Cc1nonc1CN(C)C(=O)CC1C(=O)NCCN1Cc1cccc(C(F)(F)F)c1 (centres undefined)	i	-2.8	0.68	-0.2	1	-0.2	-20
CC1(C)NC(=O)N(CC(O)COc2ccccc2C(=O)N2CCCCC2)C1=O (centres undefined)	.	-0.6	0.72	5.0	5	1.1	2
CCc1cc(=O)oc2cc(OCC(=O)NCCCN3CCCC3=O)ccc12	i	-2.4	0.66	-25	2	1.6	-3
CCc1cccc(OCCCn2ccnc2)c1	.	1.2	0.64	-0.7	4	0.1	-2
CN1C2CCC1/C(=C/c1cccn1C)C(=O)/C2=C\c1cccn1C	i	-132	0.64	29*	6	138	0
COc1cc2c(cc1NC(=O)Nc1cccc(C)c1)oc1ccccc12	.	-0.4	0.7	-76	4	-0.1	-4
Cc1cccc(C(=O)Nc2nnc(Cc3c[nH]c4ccccc34)s2)c1	.	2.8	0.67	2.8	17	5.8	-35
O=S(=O)(NCCc1ccccn1)c1cccs1	.	-2.8	0.71	1.7	-12	0.4	-2
CN(C)c1ccc(/C=N/NC(=O)COc2ccccc2)cc1	i	1.6	.	.	0	3.3	.
Cc1noc(C)c1CSc1nc2ccccc2n1CCc1ccccc1	.	-3.8	0.69	0.2	-5	1.8	95*
CC(O)/C=C/c1ccc2ccccc2n1 (centres undefined)	.	i	0.63	3.0	1	0.9	10
COc1cc(NC(=O)CCn2c(=O)oc3ccccc32)cc(OC)c1OC	.	1.5	0.64	1.2	-1	0.6	-20
O=C(NCC1COCCO1)c1ccc2nc(Cc3cccc(Cl)c3)oc2c1 (centres undefined)	i	-0.8	0.71	2.0	-2	0.2	15
COc1ccc(/C=C/C(=O)Nc2ccccc2C)cc1S(=O)(=O)N1CCOCC1	i	1.6	0.66	3.9	18	0.7	.
CCOc1cc(C)c(Cl)cc1S(=O)(=O)NCc1ccco1	.	4.3	0.75	3.0	-3	20	0
NC(=O)CSc1n[nH]c(=O)n1CCc1ccccc1	i	-3.5	0.67	-0.6	-3	3.4	.
C=CCNc1nc(Nc2ccc(OC)cc2OC)nc(OCC)n1	.	2.9	0.77	4.2	-11	-2.1	-2
CN(C)c1nc(N(C)C)n(C(=O)c2ccc(F)cc2)n1	i	0.0	0.63	4.8	-4	-0.9	-5
Cc1ccccc1NC(=O)c1ccco1	i	-12	0.65	0.8	-1	-0.4	-4
CCOc1cnn(-c2cc(Oc3ccc(C)cc3)ncn2)c(=O)c1Cl	.	-2.2	0.7	2.9	-16	-0.6	2
COc1ccc(C(=O)O)cc1S(=O)(=O)NCCc1ccccn1	i	-0.6	0.66	0.9	9	2.9	.
Cc1cc(C)c2cc(CN(CCO)Cc3nnnn3Cc3ccc(F)cc3)c(=O)[nH]c2c1	.	.	0.74	-1.9	-1	3.0	.
COC(=O)c1sccc1N/N=C(\C)c1ccc(F)c(Cl)c1	.	-3.5	.	.	2	-2.5	-2
COc1ccc(NC(=O)CCN=C2NS(=O)(=O)c3ccccc32)cc1S(=O)(=O)N(C)C	i	-1.1	0.65	0.6	-14	-1.0	-4

Complete entries, looked up by structure. Values in the order: FGF22 binding	LANA-H2B inh	E coli growth	UCH37 inh	Beta2AR agonist	HNF4A DNA FP	ALR H2O2 inh
Entry for `Cc1noc(C)c1CSc1nc2ccccc2n1CCc1ccccc1` → .	-3.8	0.69	0.2	-5	1.8	95*
Entry for `CCc1cccc(OCCCn2ccnc2)c1` → .	1.2	0.64	-0.7	4	0.1	-2

Returning to the listing with the 3 entries that preceded the break.
SMILES	FGF22 binding	LANA-H2B inh	E coli growth	UCH37 inh	Beta2AR agonist	HNF4A DNA FP	ALR H2O2 inh
Cc1cc(C)c2cc(CN(CCO)Cc3nnnn3Cc3ccc(F)cc3)c(=O)[nH]c2c1	.	.	0.74	-1.9	-1	3.0	.
COC(=O)c1sccc1N/N=C(\C)c1ccc(F)c(Cl)c1	.	-3.5	.	.	2	-2.5	-2
COc1ccc(NC(=O)CCN=C2NS(=O)(=O)c3ccccc32)cc1S(=O)(=O)N(C)C	i	-1.1	0.65	0.6	-14	-1.0	-4
COc1ccc(C)cc1NCc1ccc([N+](=O)[O-])cc1	i	-2.8	0.64	1.7	-3	1.4	99*
O=S(=O)(Nc1ccc(OC(F)(F)F)cc1)c1cccc2nonc12	i	-2.4	0.61	2.4	7	-5.0	-3
CCCc1nnc(NC(=O)CCC(=O)N2CCN(S(=O)(=O)c3ccc(F)cc3)CC2)s1	i	0.2	0.69	-2.2	-2	-0.4	-1
Cc1ccc(NC(=O)CN2C(=O)COc3ccc(S(=O)(=O)N4CCCC4)cc32)c(C)c1	i	1.1	0.64	1.5	-2	-1.0	-1
Cc1cc(C)cc(NC(=O)C2CCN(c3cnccn3)CC2)c1	i	3.3	0.61	-14	3	-2.9	-3
CN(C(=O)COC(=O)CCC(=O)c1ccc(Cl)cc1)c1c(N)n(Cc2ccccc2)c(=O)[nH]c1=O	.	-1.2	0.66	2.4	-5	2.5	-1
Cc1ccc(N2CC(C(=O)NCc3cccs3)CC2=O)cc1 (centres undefined)	.	-3.7	0.61	1.6	12	1.6	-26
Cc1cc(C#N)c(C)n1-c1cc(S(=O)(=O)N2CCOCC2)ccc1N1CCCC1	.	1.4	0.69	1.1	0	0.3	3
Cc1ccccc1-c1cc(C(=O)NCc2cccs2)nn1CC1CC(c2cccc([N+](=O)[O-])c2)=NO1 (centres undefined)	i	13	0.72	2.3	-4	3.2	-1
O=C1NC2(CCCCCC2)C(=O)N1Cc1cccc(Cl)c1	i	3.1	0.67	1.9	-1	3.2	0
O=C(O)/C=C/c1cnc2ccccc2c1	i	-8.9	0.64	6.9	-8	0.1	-13
O=C1N/C(=N/O)S/C1=C\c1ccccc1-n1cccn1	.	0.6	0.69	10.0	1	0.4	93*
COc1ccc(-c2cc3c(=O)n(CC(=O)NCc4ccc(Cl)cc4)ncn3n2)cc1	i	2.8	0.7	0.0	2	1.8	0
Cc1ccc(C(=O)Nc2ccc(F)cc2)cc1NC1=NC2CS(=O)(=O)CC2S1 (centres undefined)	i	-5.2	0.69	3.5	2	1.6	-5
CCOc1ccc(C2C(C(=O)c3ccco3)=C(O)C(=O)N2CCCn2ccnc2)cc1OCC (centres undefined)	i	9.7	0.65	7.5	1	0.9	-53
COc1ccc(OC)c(C2c3c(oc4ccccc4c3=O)C(=O)N2CCCN(C)C)c1 (centres undefined)	.	-0.7	0.77	1.4	-1	-0.9	0
Cc1ccc(NCC(=O)N/N=C/c2ccc(OC(=O)c3ccco3)cc2)cc1	i	1.0	.	.	13	-0.2	99*
CCOc1ccc(S(=O)(=O)Nc2ccc(C(=O)NCC(c3ccccc3)N(C)C)cc2)cc1 (centres undefined)	i	-2.5	0.69	-1.8	6	2.1	-4
COc1ccc(-n2c(Cc3cccn3C)nnc2SCC(=O)NCCc2ccccc2)cc1	.	-1.5	0.61	2.5	8	-2.5	0
O=C(NCCCn1ccnc1)c1cc2c(s1)CCCCC2	.	-2.1	0.69	2.2	-8	2.6	-5
N/C(=N\OC(=O)Cc1ccc(Cl)cc1)c1cccnc1	i	-11	0.74	1.7	19	-4.1	1
O=C(N[C@@H](Cc1ccccc1)C(=O)OCc1ccccc1)c1nc[nH]c1C(=O)NCc1ccccc1	i	1.6	0.82	1.1	63*	4.1	-1
O=C(CN(Cc1ccc(F)cc1)C(=O)Cn1nnc2ccccc21)NCC1CCCO1 (centres undefined)	.	-0.1	0.72	-0.3	7	-0.6	-5
O=C(CCCc1ccccc1)NCCC1=CCCCC1	i	-0.2	0.67	2.8	-11	-2.4	-17
Cc1nn(-c2nc3ccccc3s2)c(C)c1Oc1ccccc1O	.	3.4	0.71	5.1	2	-1.0	.
CC(NC(=O)c1cccnc1)c1ccc2c(c1)OCO2 (centres undefined)	i	-1.5	0.69	1.2	9	2.9	-3
Cc1sc(NC(=O)c2cccs2)c(C(N)=O)c1C	.	3.2	0.64	0.4	-14	-5.0	13
O=C(CSc1ccccc1)NCCSCc1ccccc1	.	-3.0	0.72	6.4	7	2.3	-22

Not all compounds are listed; count on the stated rates, not on these rows.
